# PV pol inh: poliovirus RNA polymerase inhibition | % elongation, % (compound at 16.7 µg/mL) | 0.66% of 150,000 active | poliovirus polymerase elongation, fluorescence polarization; hits give low values; in the data active means % elongation below about 90%; further: some results filed as inactive read as strong as hits
# Target sequence (P03300 1749-2209 limits assumed): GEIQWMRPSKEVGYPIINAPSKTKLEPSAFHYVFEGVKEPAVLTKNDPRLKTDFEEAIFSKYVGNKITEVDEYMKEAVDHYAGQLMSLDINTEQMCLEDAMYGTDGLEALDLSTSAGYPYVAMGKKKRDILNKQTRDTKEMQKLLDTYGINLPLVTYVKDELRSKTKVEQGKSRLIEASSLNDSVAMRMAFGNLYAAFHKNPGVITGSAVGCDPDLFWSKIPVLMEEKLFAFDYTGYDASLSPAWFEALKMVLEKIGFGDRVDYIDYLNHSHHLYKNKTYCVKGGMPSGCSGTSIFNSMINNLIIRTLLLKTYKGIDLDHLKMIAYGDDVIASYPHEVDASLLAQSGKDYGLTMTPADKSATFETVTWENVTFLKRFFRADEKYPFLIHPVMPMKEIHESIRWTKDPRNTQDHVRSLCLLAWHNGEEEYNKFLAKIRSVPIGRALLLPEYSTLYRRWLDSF
# PV pol inh intensity: recorded beside PV pol inh, whose call it bears; % elongation; measured here: total intensity read-out; formula for this scale not given here;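 total fluorescence in place of polarization; lower means less elongation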
# An asterisk follows results filed as active. This is a subset; the hit share may differ from the screen's.
SMILES,PV pol inh,PV pol inh intensity
COc1ccccc1N1CCN(Cc2cc(COC(C)C)c3cccnc3c2O)CC1,126,134
CCCN(C(=O)Cn1ncc2c1-c1ccccc1OC2)c1cccc(C)c1,106,100
COc1ccccc1NC(=O)CSCc1cc(=O)c2c(C)cc(C)cc2[nH]1,111,111
CC(=O)c1ccc(N2CCN(S(=O)(=O)c3cc(-c4onc(C)c4C)ccc3C)CC2)cc1,111,114
Cc1nc(-c2cccc(NC(=O)Nc3ccc([N+](=O)[O-])cc3)c2)no1,102,100
CCOC(=O)c1cc(-c2ccccc2)n(-c2cccc(C(=O)N(CC)c3ccccc3)c2)c1C,99,104
Cc1ccccc1Nc1cc(C(=O)NC2CCCCC2)c2ccccc2n1,111,103
CC(=O)c1cccc(NC(=O)c2sc(-n3nc(C)c(Cc4ccccc4)c3C)nc2C)c1,105,111
Cc1ccc(CNC(=O)CSc2nc(=O)n(Cc3ccco3)c3c2CCC3)cc1,106,107
CCC(=O)N1CCc2cc(Br)cc(S(=O)(=O)N3CCC(C(=O)N(CC)CC)CC3)c21,104,109
CCC(C)NC(=O)c1sc2nc(C)c(C(=O)Nc3ccc(C)cc3C)c(-c3ccc(Cl)cc3)c2c1N (stereo not given),109,114
COc1ccc(-c2cc(C(=O)NCCc3ccc(Cl)cc3)[nH]n2)cc1,109,109
COc1cc(OC)cc(-c2nc3n(n2)C(c2ccccc2F)C(C(=O)Nc2cccnc2)=C(C)N3)c1 (stereo not given),102,104
CCCc1ccc(OCC(=O)Nc2sc3c(c2C(=O)OC)CCCCC3)cc1,85*,86*
COc1ccc(Cn2c(C(=O)O)c(CNCCc3cccs3)c3ccc(C)cc32)cc1,109,104
Cc1cc(=O)[nH]c2nnc(SCc3ccc(C(F)(F)F)cc3)n12,101,107
COc1cccc(-n2c(SCC(=O)N3CCc4ccccc43)nc3c([nH]c4ccccc43)c2=O)c1,109,115
Cc1ccc(NC(=O)Nc2nnc(SCC(=O)Nc3ccc(F)cc3F)s2)cc1,110,110
Cc1cccc(NC(=O)C2CCC(CNS(=O)(=O)c3csc(C(N)=O)c3)CC2)c1C (stereo not given),106,109
CC(C)(C)OC(=O)N1CCC(c2c(C(=O)NCc3ccco3)cnn2-c2ccc(F)cc2F)CC1,108,107
CCOC(=O)C1CCCN(C(=O)c2ccc3c(c2)N(Cc2ccc(Cl)cc2)C(=O)c2ccccc2S3=O)C1 (stereo not given),107,107
CCOc1ccc(NC(=O)Cn2c(C)ccc(C#N)c2=O)cc1,105,105
O=C(Nc1ccc(F)c(F)c1)C1CCCN(S(=O)(=O)c2cccc3nonc23)C1 (stereo not given),107,110
Cc1ccc(C2C(=O)N(C3CCCCCC3)CC(=O)N2CCC2=CCCCC2)cc1 (stereo not given),107,97
COc1ccc(C2c3cc(OC)c(OC)cc3CC(=O)N2c2ccc(C)cc2)cc1 (stereo not given),107,105
COc1cccc2cc(-c3cn4c(n3)sc3cc(F)ccc34)c(=O)oc12,106,111
COc1cc(NC(=O)C(=O)Nc2ccc3nc4n(c(=O)c3c2)CCCCC4)cc(OC)c1OC,106,109
O=C(O)c1cccc(Nc2ncnc3scc(-c4ccccc4)c23)c1,105,106
COc1cccc(C2C(C(N)=O)=C(C)Nc3nc(CCCO)nn32)c1 (stereo not given),106,104
CCOc1ccc(NC(=O)CSc2oc(-c3ccco3)nc2S(=O)(=O)c2ccc(C)cc2)cc1,106,110
COCCCNC(=O)c1sc2nc(C)c(C(=O)Nc3ccc(C)cc3C)c(-c3ccc(Br)cc3)c2c1N,105,108
Cc1cccc(N2CCN(C(=O)c3cc4c(=O)oc5ccccc5c4s3)CC2)c1C,107,110
Cc1ccc(NC(=O)c2c(C)nc3sc(C(=O)Nc4ccc(F)cc4)c(N)c3c2-c2ccccc2Cl)c(C)c1,104,108
CCc1cc2c(cc3c(=O)n(CC(=O)NC4CCCCC4)ncn32)s1,106,112
Cc1cccc(C)c1OCc1cc(=O)n2c(-c3ccccc3)csc2n1,112,119
CCC1CCCCN1C(=O)c1nn(-c2ccc(OC)cc2)c(=O)c2c1c1ccccc1n2C (stereo not given),113,107
COc1ccc(-c2nc(CCNC(=O)c3c(F)cccc3Cl)cs2)cc1,108,101
COc1ccc(OCC(O)Cn2c(NCCO)nc3c2c(=O)n(C)c(=O)n3C)cc1 (stereo not given),108,111
COc1ccccc1N1CCN(C(=O)c2cc3c(=O)n(Cc4cccs4)ccc3nc2C)CC1,100,108
Cc1ccc(CCNC(=O)c2ccc(CSCc3ccccc3Cl)o2)cc1,112,113
CCCC(=O)C1=C(c2ccc(C)c(C)c2)N(C(=O)CCC)n2c(CC)nnc2S1,108,106
Cc1ccc(NC(=O)CSc2nnc(-c3ccc(Br)cc3)o2)c(C)c1,106,106
Cc1cccc(N2CCN(C(=O)C3CCN(S(=O)(=O)c4c(C)noc4/C=C/c4ccccc4F)CC3)CC2)c1C,107,109
COCCCNC(=O)c1cnn(-c2ccccc2Cl)c1C1CCN(C(=O)OC(C)(C)C)CC1,111,110
COc1ccccc1CNC(=O)c1ccc(N2CCCC2)c(NC(=O)NCc2ccc(C)cc2)c1,107,108
COc1cc2c(cc1OC)C(COc1ccc3c(C)cc(=O)oc3c1)N(C(=O)c1ccc(Cl)cc1)CC2 (stereo not given),105,106
Cc1ccc(C(=O)c2cn(Cc3ccccc3)c3c(F)cc(F)cc3c2=O)cc1,101,102
CCn1cc(C(=O)Nc2ccc(C(C)C)cc2)c2cc(OC)c(OC)cc2c1=O,107,108
Cc1ccc(C2=Nc3ccccc3N(CC(=O)NCc3ccc(Cl)cc3)C(=O)C2)cc1C,108,113
COCCn1c(SCC(=O)Nc2ccc(C(F)(F)F)cc2)nc2c([nH]c3ccccc32)c1=O,110,109
CCOC(=O)C1=C(CS(=O)(=O)c2c(C)cc(C)cc2C)NC(=O)NC1c1cccc(OC)c1 (stereo not given),106,109
Cc1ccc(NC(=O)Cn2cc(C(=O)C3CC3)c3ccccc32)cc1,108,109
O=C(NCc1ccc(F)cc1)c1ccc2nc(N3CCCCC3)sc2c1,106,107
CCC(Oc1ccccc1)C(=O)Nc1nnc(S(=O)(=O)N(CC)CC)s1 (stereo not given),107,100
CCCCC(=O)Nc1cc(-c2nc3ccccc3o2)ccc1OC,108,110
CCc1cccc2c(-c3ccccc3)nc(SCC(=O)Nc3ccccc3)nc12,109,113
CCC(C(=O)NCCc1ccccc1)n1nc(C)n2c(cc3sccc32)c1=O (stereo not given),107,112
COc1ccc(CNC(=O)c2ccc3c(c2)CCN3S(=O)(=O)c2ccccc2)cc1,104,105
Cc1ccc2nc(N(Cc3cccnc3)C(=O)COc3ccccc3)sc2c1,102,93
Clc1ccccc1CSc1nncn2c1cc1occc12,101,100

# Further results follow:
SMILES,PV pol inh,PV pol inh intensity
O=C(O)CCc1ccc(-c2ccc(Br)cc2)n1-c1ccccc1O,107,108
CCOc1ccc(C(=O)c2cn(Cc3ccccc3OC)c3ccc(F)cc3c2=O)cc1,111,112
O=C(c1ccc2c(c1)CCN2S(=O)(=O)c1ccccc1)N1CCN(c2cccc(Cl)c2)CC1,110,115
CCC(Sc1ncccc1C(=O)Oc1ccccc1Cl)C(=O)Nc1ccccc1OC (stereo not given),114,113
Cc1ccc(C)c(N2CCN(C(=O)Cn3ncc4ccsc4c3=O)CC2)c1,101,102
Cc1ccccc1CNC(=O)CN1C(=O)CCCc2ccccc21,104,110
CCOC(=O)c1c(C)[nH]c(CCC(=O)NCc2ccc(CC)cc2)c1C,113,113
O=C(CN1C(=O)C2(SCC(=O)N2c2ccccc2)c2ccccc21)NCc1ccccc1 (stereo not given),100,96
COc1cc(OC)cc(-c2cc3nc(C)c(CCC(=O)Nc4ccc(F)c(Cl)c4)c(C)n3n2)c1,107,111
COc1ccccc1CNC(=O)C(CC(C)C)NS(=O)(=O)c1ccc2c(c1)oc(=O)n2C (stereo not given),104,105
CN(C(=O)c1ccc2c(c1)N(Cc1ccc(F)cc1)C(=O)c1ccccc1S2(=O)=O)C1CCCCC1,102,104
O=C(CNS(=O)(=O)c1ccc(Br)s1)N1CCN(c2ccc(F)cc2)CC1,105,107
COc1ccc(-c2cc(C(F)(F)F)nc(SCC(=O)NCc3ccc(Cl)cc3)n2)cc1,103,104
COC(=O)c1ccc(CSc2c(C(C)C)cnc3c2c(=O)n(C)c(=O)n3C)cc1,116,108
Cc1cc(C)cc(Oc2coc3cc(OCC(=O)NC4CCCCC4)ccc3c2=O)c1,106,101
CCN(CC)CCCNC(=O)CSc1c2c(nc3cc(Cl)ccc13)CCCC2,103,105
CCOc1ccc(C2C(C(N)=O)=C(C)Nc3nc(SCc4ccccc4)nn32)cc1 (stereo not given),101,104
COc1ccc(NC(=O)CSC2=Nc3ccccc3C3=NC(CC(=O)NCc4ccc5c(c4)OCO5)C(=O)N23)cc1 (stereo not given),104,103
CCOC(=O)c1cccc(NC(=O)CC2C(=O)N(c3ccc(OC)cc3)C(=O)N2C2CCCC2)c1 (stereo not given),102,96
O=C(CCCCn1c(=O)c2ccccc2n(Cc2ccccc2F)c1=O)NCc1ccccc1Cl,108,111
COc1ccc(OC)c(C(c2c(O)c3ccccc3oc2=O)c2c(C)n(C)n(-c3ccccc3)c2=O)c1 (stereo not given),104,108
Cn1c(SCc2ccccc2F)nc2c([nH]c3ccccc32)c1=O,115,113
Cc1ccc2c(c1)NC(=O)C(CC(=O)Nc1ccccc1Cl)O2 (stereo not given),104,108
CCOC(=O)CC(NS(=O)(=O)c1cc(-c2cc(C)no2)ccc1C)c1ccc(C)cc1 (stereo not given),101,106
O=C(Cn1ncc2c3ccccc3n(Cc3ccccc3)c2c1=O)N1CCCCCC1,109,112
Cc1ccc(S(=O)(=O)c2nnn3c2nc(N2CCN(c4ccc(F)cc4)CC2)c2cc(Cl)ccc23)cc1C,106,113
O=C(c1ccc(F)cc1)N1CCC(c2nc(-c3ccc(S(=O)(=O)N4CCCC4)cc3)no2)CC1,110,114
CC(C)(C)OC(=O)N1CCC(c2c(C(=O)NCCCN3CCc4ccccc4C3)cnn2-c2ccccc2)CC1,102,106
Cc1ccc(Nc2c(-c3ccc(O)cc3)nc3cccc(C)n23)cc1,104,107
CC(=O)Nc1ccc(S(=O)(=O)NCc2cccn2Cc2cccc(C)c2)cc1,106,110
CCCCN(CC)CCCNC(=O)c1cc2c(-c3ccc(OC)c(OC)c3)nn(C)c2s1,80*,49*
CCC(=O)N1c2ccccc2CC1C(=O)N1CCN(c2ccccc2F)CC1 (stereo not given),101,94
COc1cc(NC(=O)CCn2c(=O)oc3ccccc32)cc(OC)c1OC,106,109
O=C(CSCc1nc2cccnc2n1C1CCCCC1)NCc1cccc(Br)c1,111,104
COc1ccc(OC)c(NC(=O)c2oc(=O)c3ccccc3c2-c2ccccc2)c1,100,106
Cn1cnc2c(=O)oc3ccc(S(=O)(=O)N4CCN(c5cccc(C(F)(F)F)c5)CC4)cc3c21,103,102
CCOC(=O)CSc1nnc(-c2ccc(OC)cc2)o1,108,111
COc1cc(NC(=O)c2c(C)nn(-c3ccc(F)cc3)c2-n2cccc2)cc(OC)c1,110,102
CC(=O)c1ccc(NC(=O)c2nn(C)c3c2COc2ccccc2-3)cc1,113,112
Cc1ccc(CNC(=O)Cn2c(=O)n(-c3ccc(C)cc3)c(=O)c3c2c2cc(C)ccc2n3C)cc1,106,98
Cc1oc2c(cc(NS(=O)(=O)c3ccc(C(C)C)cc3)c3ccccc32)c1C(=O)O,66,227
Cc1cc(C)c2sc(N(Cc3cccnc3)C(=O)CCOc3ccccc3)nc2c1,106,101
CCOc1cc2c(cc1OCC)C(CC(=O)OC)N(C(=O)Nc1cc(OC)ccc1OC)CC2 (stereo not given),108,109
Cc1cc(C(=O)NCc2ccccc2Cl)c2c(C)nn(-c3ccccc3)c2n1,100,105
Cc1ccccc1NC(=O)c1oc2c(c1C)-c1nn(Cc3cccc(Cl)c3)cc1CC2,106,106
COc1cccc(-n2cc(C(=O)OCc3ccc(Cl)cc3)c3ccccc3c2=O)c1,103,111
CCC12CN3CC(C)(CN(C1)C3c1ccc(O)cc1O)C2=O (stereo not given),108,113
COc1cccc(CNC(=O)Cn2nc(C)c3sc4ccccc4c3c2=O)c1OC,110,114
CN(C)S(=O)(=O)N1CCC(n2cnc3cccnc32)CC1,108,91

# Gathered by group: the entries above with a thiophene ring, fused or not.
SMILES,PV pol inh,PV pol inh intensity
CCC(C)NC(=O)c1sc2nc(C)c(C(=O)Nc3ccc(C)cc3C)c(-c3ccc(Cl)cc3)c2c1N (stereo not given),109,114
CCCc1ccc(OCC(=O)Nc2sc3c(c2C(=O)OC)CCCCC3)cc1,85*,86*
COc1ccc(Cn2c(C(=O)O)c(CNCCc3cccs3)c3ccc(C)cc32)cc1,109,104
Cc1cccc(NC(=O)C2CCC(CNS(=O)(=O)c3csc(C(N)=O)c3)CC2)c1C (stereo not given),106,109
O=C(O)c1cccc(Nc2ncnc3scc(-c4ccccc4)c23)c1,105,106
COCCCNC(=O)c1sc2nc(C)c(C(=O)Nc3ccc(C)cc3C)c(-c3ccc(Br)cc3)c2c1N,105,108
Cc1cccc(N2CCN(C(=O)c3cc4c(=O)oc5ccccc5c4s3)CC2)c1C,107,110
Cc1ccc(NC(=O)c2c(C)nc3sc(C(=O)Nc4ccc(F)cc4)c(N)c3c2-c2ccccc2Cl)c(C)c1,104,108
CCc1cc2c(cc3c(=O)n(CC(=O)NC4CCCCC4)ncn32)s1,106,112
COc1ccccc1N1CCN(C(=O)c2cc3c(=O)n(Cc4cccs4)ccc3nc2C)CC1,100,108
CCC(C(=O)NCCc1ccccc1)n1nc(C)n2c(cc3sccc32)c1=O (stereo not given),107,112
Cc1ccc(C)c(N2CCN(C(=O)Cn3ncc4ccsc4c3=O)CC2)c1,101,102
O=C(CNS(=O)(=O)c1ccc(Br)s1)N1CCN(c2ccc(F)cc2)CC1,105,107
CCCCN(CC)CCCNC(=O)c1cc2c(-c3ccc(OC)c(OC)c3)nn(C)c2s1,80*,49*
COc1cccc(CNC(=O)Cn2nc(C)c3sc4ccccc4c3c2=O)c1OC,110,114

# Screening data (PubChem)
